Sa helicase inh: S. aureus DNA helicase inhibition; purified S. aureus helicase, fluorescence unwinding assay; about half of the hits fall short of the stated cut; inhibition, %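 (tested at about 80 µM)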; 120,000 tested, 0.05% active; AID 485395;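 active = both duplicates at 50% or more, or one of them with a favoured structure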;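 also: 0% = mean of negative control wells and 100% = mean of positive control wells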
MgrA-DNA mod: alters Staphylococcus aureus MgrA binding to DNA; AID 602314; 84,000 tested, 0.13% active; inhibition, %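 (about 10 µg/mL by stock and volumes)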; fluorescence polarization;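 active = above 50% in either of two replicates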;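 also: 0% = protein plus DNA without compound and 100% = DNA alone without protein; higher means less MgrA bound to DNA so lower polarization; one replicate is shown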
* = called active by the depositor; nt = not tested or not shown. An excerpt; rates above refer to the full screens.

Structure,Sa helicase inh,MgrA-DNA mod
CCOCCn1c(=NC(=O)C(C)(C)C)sc2cc(S(C)(=O)=O)ccc21,19,nt
COc1ccc(-c2nn(C)c(=O)[nH]2)cc1,nt,-0.1
C=CCOC(Cn1ccnc1)c1ccc(Cl)cc1Cl (stereo not drawn),nt,3.6
CC(C(=O)Nc1ccc(Br)cc1)N1CCN(S(=O)(=O)c2ccccc2)CC1 (stereo not drawn),-6,nt
CC(C)(C)c1ccc2c(c1)N(CC(=O)O)C(=O)CO2,-3,nt
O=C1NC(=O)C(CC(=O)N2CCCCC2)N1 (stereo not drawn),2,nt
c1ccc(SCCNC2=NCCCS2)cc1,-13,nt
COC(=O)c1ccc(Oc2ncnc3scc(-c4ccccc4)c23)o1,nt,-2.2
CCc1nc(NCC(C)C)c(C#N)c2c1CCCC2,4,0.8
CC(C)(C)c1ccc(OCCC(=O)O)cc1,14,nt
COCc1nc(-c2ccccn2)[nH]c(=O)c1C,nt,5.5
CC(C)N(Cc1cc2ccccc2[nH]c1=O)C(=O)c1ccncc1,5,-0.7
N=C1c2ccccc2CN1c1ccc(S(=O)(=O)N2CCCCC2)cc1,-13,nt
N=c1n(CC(=O)c2ccc(Cl)c(Cl)c2)c2ccccc2n1Cc1ccccc1,7,-2.6
CC1=NN(c2ccccc2)C(=O)/C1=C1/C(=O)N(c2ccccc2)N=C1C,11,nt
O=C(c1cc2sccc2n1Cc1ccccc1)N1CCN(Cc2ccc3c(c2)OCO3)CC1,5,-2.5
COc1ccc(S(=O)(=O)Nc2ccccc2-c2nnc(-c3ccc(Cl)cc3)o2)cc1OC,nt,1.4
COc1ccc(C2C(C(=O)c3cccs3)=C(O)C(=O)N2CCCN(C)C)c(OC)c1 (stereo not drawn),-17,nt
O=S(=O)(c1ccccc1)N1CCC(n2cnc3ccccc32)CC1,-5,-2.0
CCCCN1CC(C(=O)NCCc2ccc(Cl)cc2)CC1=O (stereo not drawn),11,-0.3
O=C1CN(C(=O)/C=C/c2ccc(Cl)cc2)c2ccccc2N1,4,nt
Cc1cc(C)c(C)c(C(=O)O)c1C,1,-3.0
CC1(C)CC2CC(C)(CN2C(=O)Nc2ccc3snnc3c2)C1 (stereo not drawn),3,-2.6
CSc1nsc(SCCN2C(=O)c3ccccc3C2=O)n1,6,3.0
O=C(OCc1ccccc1)Oc1cncc(C(=O)O)c1,3,-2.6
FC(F)(F)c1ccc(CSc2ccccn2)cc1,nt,-1.5
CC1CC(=O)Nc2ccccc2N1C(=O)c1ccco1 (stereo not drawn),23,nt
CN1C(=O)N(S(=O)(=O)c2ccc(F)c(F)c2F)C(=O)C1(C)C,-7,nt
Cc1ccccc1OCC(=O)Nc1ccc(NC(=O)c2ccco2)cc1,15,nt
Nc1cc(N)nc(SC(C(=O)N2CCCCC2)c2ccccc2)n1 (stereo not drawn),21,nt
NC(=O)CN1CCN(c2ccc(Cl)cc2)CC1,4,-0.7
C(#Cc1ccc(-c2ccn[nH]2)s1)c1ccccc1,nt,-3.2
COc1ccc(-c2nonc2NC(=O)COc2ccccc2)cc1,-25,nt
CCCc1c2c(cc3c(=O)cc(C(=O)OCC)oc13)CCCC2,nt,0.1
CCC1SC(CC)C(=O)N(CC(=O)NCCc2ccccc2)C1=O (stereo not drawn),8,nt
COc1cc(C2N(c3ccccc3)CCN2c2ccccc2)cc(OC)c1OC,2,-1.3
Cc1cccc(-c2nc3ccccc3c(=O)n2OC(=O)c2cccc(Cl)c2)c1,nt,0.5
C=CCSc1nnc(CCc2nnc(SCC=C)n2-c2ccccc2)n1-c1ccccc1,10,nt
Cc1ncc(CO)c(CNc2ccccc2)c1O,11,nt
N#C/C(=N\Nc1ccc(C(F)(F)F)cc1)C(=O)C1CC1,nt,1.4
Cc1nc(SCC(=O)c2cc(C)n(-c3ccccc3)c2C)c2ccsc2n1,14,4.2
O=c1c2ccccc2ncn1-c1ccc(F)cc1,11,0.6
N#Cc1ccc(Oc2ccccc2)nc1,nt,-1.6
N#CCCn1cc(/C=N/n2c(=O)[nH]c3ccccc3c2=O)c(-c2ccc(F)cc2)n1,2,nt
CC1CC(C)CN(c2nnc(NC(=O)c3cc(-c4ccc(Br)cc4)on3)s2)C1 (stereo not drawn),-5,nt
Cc1nnc(NC(=O)C(C)Oc2ccc(Cl)c(C)c2)s1 (stereo not drawn),6,0.6
Cc1sc2nc(C)n(C3CCN(CC(=O)NCC4CC4)CC3)c(=O)c2c1C,-4,-1.3
COc1nc(-c2ccc(Cl)cc2Cl)nc2ccccc12,7,-1.6
CC(NC(=O)c1ccccc1F)C1CC1 (stereo not drawn),8,nt
CN(C)c1nc(Nc2ccc(F)cc2)nc(Oc2ccc(F)cc2)n1,5,1.2

Next structures
Structure,Sa helicase inh,MgrA-DNA mod
NC(=O)C1CCN(C(=O)CCc2nc3ccccc3n2-c2ccccc2)CC1,-4,nt
COC(=O)c1ccc(COc2ccc(/C=N/NC(N)=O)cc2)o1,-2,nt
CCn1c2ccc(F)cc2c2nc(C)sc21,41,nt
CCn1cc(C(=O)OCC(=O)N(C)Cc2ccccc2)c(=O)c2ccc(C)nc21,6,nt
O=C1c2ccccc2C(=O)c2oc(-c3ccc(F)cc3)nc21,1,7.8
CC(NC(=O)c1ccc(C(C)(C)C)cc1)C(=O)O (stereo not drawn),11,0.0
C=CC[n+]1c(-c2ccccc2)csc1NC(C)(C)C,18,nt
O=C(NC1CCCC1)c1ccc2c(=O)n3c(nc2c1)CCCCC3,27,nt
CC(=O)Nc1nc(C)c(Oc2cccc(C(F)(F)F)c2)c(=O)[nH]1,nt,0.3
O=C(CCCn1ncn2c(cc3occc32)c1=O)N1CCCCC1,-3,-1.2
O=C(CSc1nc2ccccc2s1)c1ccc[nH]1,-12,nt
O=C1NC(Nc2nc3ccccc3s2)(C(F)(F)F)C(=O)N1C1CCCCC1 (stereo not drawn),-7,nt
CC(C)(C)C#CC(O)(C#CC(C)(C)C)C#CC(C)(C)C,nt,-0.1
Cc1ccc(CNC(=O)c2ccc(Cn3nc(C)c(Cl)c3C)o2)cc1,8,0.4
CC(NC(=O)c1ccc(Cl)cc1Cl)C(=O)O (stereo not drawn),nt,-5.2
CNS(=O)(=O)c1ccc(C(F)(F)F)cc1S(=O)c1ccccc1C(=O)O (stereo not drawn),nt,-0.7
COC(OC)(C(=O)c1ccccc1)c1ccccc1,0,1.4
CCCCS(=O)(=O)Nc1cccc(Cl)c1,-1,-0.4
CCN(CC)c1ccc(-c2cc(C#N)on2)cc1,-2,nt
N#CSCc1ccc(C#N)cc1,nt,-10
CCc1ccc2c(c1)c1nc3ccccc3nc1n2C,18,nt
O=C(Nc1scc2c1c(=O)oc1ccccc12)c1cccs1,nt,0.2
CC(=O)N1CCN(CC(=O)N2CCc3ccccc3C2)CC1,-3,nt
Fc1cnc(Nc2cccc(Br)c2)nc1Nc1cccc(Br)c1,5,1.4
COc1ccccc1-n1c(-c2ccccc2)cn2c3c(=O)n(C)c(=O)n(C)c3nc12,18,-3.5
COC(=O)c1scc(-c2ccccc2)c1S(=O)(=O)N1CCN(c2ccccc2OC)CC1,0,nt
COc1cnn(-c2cccc(Cl)c2)c(=O)c1Cl,14,-2.4
CCn1cc(C(=O)NC2CCCCC2)c2cc(OC)c(OC)cc2c1=O,-1,nt
Cc1cc(C(=O)N2CCc3ccccc3C2)n[nH]1,-19,nt
CC(C(=O)O)n1c(-c2cccs2)n[nH]c1=S (stereo not drawn),-15,nt
CCN(CC(=O)Nc1ccc2c(c1)OCCO2)C(=O)C1CC1,6,nt
CSc1nc(-c2ccccc2)nc(Sc2ccccc2)c1C#N,nt,-1.9
CC(=O)NC(=S)Nc1ccc(Cl)cc1,9,4.0
CC1CCN(c2nc(NCc3cccnc3)nc(N3CCOCC3)n2)CC1,nt,-0.5
O=C1c2ccc(-c3nc4cc(Cl)ccc4c(=O)o3)cc2C(=O)N1CC1CCCO1 (stereo not drawn),-5,2.2
COC(=O)c1ccc(COC(=O)c2ccccc2Cl)cc1,-14,-3.7
CCN(CC)CCNc1ncnc2sc3c(c12)CCCC3,-10,nt
C=CCNc1nc(C)nc(OC)n1,6,2.2
COc1ccccc1NS(=O)(=O)c1ccc2oc(=S)n(CN(C)CCC#N)c2c1,-4,nt
COc1ccc2c(C)c(CC(=O)N3CCOCC3)c(=O)oc2c1,-9,nt
FC(F)(F)c1ccccc1NCn1nnc2ccccc21,15,-0.5
COc1ccccc1NC(=O)Cn1c(=O)n2nc(C)nc2c2ccccc21,16,-0.9
CCn1c(CN(C)C(C)=O)nc2ccccc21,-27,nt
CC(Nc1ccc(Cl)cc1)C(=O)N/N=C/c1cccc(O)c1 (stereo not drawn),-13,nt
COC(=O)CSc1nc(C)c(Br)c(=O)[nH]1,5,0.1
Cc1ccc(-n2nc(C)c3c(=O)[nH]c(C(F)(F)F)nc32)cc1,0,nt
CCCc1c(C(=O)Nc2ccc(Cl)cc2)cnn1C,nt,-2.7
Cc1cc(C)n(C(=O)CSc2nc(C)c(C)cc2C#N)n1,2,-6.0
CC12CN3CC(C)(CN(C1)C3c1ccc(O)cc1)C2 (stereo not drawn),-23,nt
Cc1ccc2nc(-c3cc4ccccc4oc3=N)[nH]c2c1,3,nt

Profiles as entered above. Order of values: Sa helicase inh, MgrA-DNA mod
Entry for `CC1CCN(c2nc(NCc3cccnc3)nc(N3CCOCC3)n2)CC1` = nt, -0.5
Entry for `CCn1c(CN(C)C(C)=O)nc2ccccc21` = -27, nt

Continued.
Structure,Sa helicase inh,MgrA-DNA mod
COc1ccc2c(CSc3nncn3-c3ccccc3OC)cc(=O)oc2c1,5,nt
O=C(NCc1ccc(Cl)cc1)c1nn2c(c1Br)NC(c1cccs1)CC2C(F)(F)F (stereo not drawn),nt,3.5
COc1ccc(-c2nnc(SCC#N)n2C2CCCCC2)cc1OC,-7,nt
COC(=O)c1cc2cccc3c2n1CCS3,14,nt
COc1ccccc1C(=O)N(C)CCc1ccccn1,6,nt
COc1cc2c(cc1OC)C(CC(C)C)=NCC2,-13,nt
S=c1oc2ccc(Cl)cc2n1CN1CCCC1,-13,nt
CC(NC(=O)Nc1ncccn1)(C(F)(F)F)C(F)(F)F,6,2.5
CN(C)c1nc2n(c(=O)n1)CCN2C(=S)S,27,nt
O=C(NC1CC1)C1CCCN(C(=O)NC2CCCCC2)C1 (stereo not drawn),8,-2.7
Cc1c(C(=O)O)oc2c1-c1nn(Cc3cccc(Cl)c3)cc1CC2,-5,nt
CCc1ccc(NC(=O)C2Cc3ccccc3C(=O)O2)cc1 (stereo not drawn),13,-1.8
COC(=O)c1c(C)oc2ccc(OCc3ccccc3)cc12,11,1.4
O=C1C2C3C=CC(C2C(=O)N1c1ccc(O)cc1)C1C2C(=O)N(c4ccc(O)cc4)C(=O)C2C31 (stereo not drawn),nt,1.5
COC(=O)c1cc2c(s1)-c1cc(Cl)ccc1SC2,nt,-1.9
COc1cc(C(C#N)N2CCCCCC2)ccc1O (stereo not drawn),5,nt
Cc1[nH]c(=S)c(C#N)c(C)c1CCC#N,nt,1.1
O=C(O)C(F)(F)C12OC3C4C5CC(C6C5C3C61)C42 (stereo not drawn),1,-5.2
O=S(=O)(/N=C(/c1ccccc1)N1CCCCC1)c1ccccc1,18,nt
Clc1ccc(C=NCc2ccc(-c3cccs3)s2)cc1,nt,1.1
O=C(/C=C/c1ccc(S(=O)(=O)NCc2ccco2)cc1)NCC(F)(F)F,-3,nt
O=c1[nH]c(N2CCN(Cc3ccccc3)CC2)nc(O)c1Cc1ccccc1,7,-1.4
O=C(NCc1cccnc1)c1cnn(-c2cccc(F)c2)c1C1CCNCC1,18,nt
c1ccc2c(c1)NC(c1c[nH]c3ccccc13)N2,nt,2.5
CS(=O)(=O)Cc1ccc(C(=O)N2CCCC2c2cccs2)cc1 (stereo not drawn),8,nt
O=C(NCCc1cccs1)c1ccc(C(F)(F)F)cc1,nt,-0.2
O=C(NCCc1ccncc1)Nc1c[nH]c2ccccc2c1=O,6,2.5
Nc1nc(N)c2c(Oc3ccc(F)cc3)cccc2n1,nt,-3.9
Cc1cccc(N(CC(N)=O)C2SC(=O)NC2=O)c1 (stereo not drawn),-11,0.2
CCOc1ccc(-c2n[nH]c(=S)c3ccccc23)cc1,4,2.7
Cc1ccccc1Nc1nc(N)nc(COC(=O)C23CC4CC(CC(O)(C4)C2)C3)n1,4,nt
CCOC(=O)c1cnc(SCC(=O)N2CCc3ccccc32)nc1N,-5,0.0
CC1CCCCC1NC(=O)COc1ccc(C#N)cc1 (stereo not drawn),1,-0.5
N#CCC(=O)Nc1cc(Cl)cc(Cl)c1,-14,-4.8
N#Cc1cc2c(=O)n3ccccc3nc2n(CCN2CCOCC2)c1=O,19,0.0
c1ccc(CNCc2cn3c(-c4ccccc4)nnc3s2)cc1,-10,nt
O=c1[nH]cc(N2CCCCCC2)c(=O)[nH]1,nt,-2.7
CC(=O)Nc1ccc(NC(=O)CS(=O)(=O)Cc2ccccc2)cc1,7,2.2
COc1cc(C(=O)NN)ccc1-c1ccc(C(=O)NN)cc1,-4,21

Bioassay records from PubChem BioAssay.
